# rRNA inh HTS: reduced GFP signal of wild-type E. coli, primary screen, bacterial rRNA inhibitor project, GFP/RFP fluorescence, OD600, single point. GFP signal change (wild-type ribosome), % (concentration not given with the values). E. coli WT GFP vs humanized-ribosome RFP mutants, 24 h; active compounds read low; DMSO median 0, no signal -100. actives 1.6% (n = 350,000);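 active means significant combined selectivity score with lowered wild-type GFP, culture density cut under 30%, mutant RFP and density less affected; inactive means any of these conditions unmet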; further: one replicate is shown; some compounds called inactive have numbers as strong as hits
# AF4-AF9 inh: inhibitors of AF4 peptide binding to AF9, primary screen, biochemical, AlphaScreen, biotin-AF4 peptide, FLAG-AF9, single point; actives 0.47% (n = 350,000); AID 651704, 2012; inhibition, % at 10 µM; Protein AF-9 (Homo sapiens), P42568;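 active means every replicate reaching a set inhibition limit, whatever the replicate mean, cut at about 25% in these data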;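 further: 0% = plate neutral control median and 100% = total signal loss; the record names both 10 and 1 µM as test concentration; the first replicate is given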
# Target sequence (P42568 whole entry, looked up): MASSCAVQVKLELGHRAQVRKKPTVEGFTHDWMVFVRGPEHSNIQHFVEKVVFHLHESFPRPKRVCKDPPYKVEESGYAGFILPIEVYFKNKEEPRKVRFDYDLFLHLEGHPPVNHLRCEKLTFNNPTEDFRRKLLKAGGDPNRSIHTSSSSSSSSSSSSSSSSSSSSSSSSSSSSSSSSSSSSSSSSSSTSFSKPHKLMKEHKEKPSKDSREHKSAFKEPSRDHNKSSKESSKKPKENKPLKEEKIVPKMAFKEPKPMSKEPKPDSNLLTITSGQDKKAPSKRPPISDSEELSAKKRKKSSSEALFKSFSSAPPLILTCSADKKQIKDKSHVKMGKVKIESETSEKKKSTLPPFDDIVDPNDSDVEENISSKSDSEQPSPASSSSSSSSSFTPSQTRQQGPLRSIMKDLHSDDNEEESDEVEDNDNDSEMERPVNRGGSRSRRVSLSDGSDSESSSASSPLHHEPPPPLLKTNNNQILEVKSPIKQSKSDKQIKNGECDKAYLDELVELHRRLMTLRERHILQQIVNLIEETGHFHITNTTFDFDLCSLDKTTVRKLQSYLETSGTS
# rRNA inh HTS OD600: further read-out of rRNA inh HTS, marked with its call; OD600 change, %; measured here: OD600 growth;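 optical density of the mix in the first replicate; 0 = DMSO median and -100 = no signal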
# rRNA inh HTS RFP: second read-out of rRNA inh HTS, no call of its own (marks repeat the call); RFP signal change, %; measured here: RFP humanized mutant strains;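 first replicate; 0 = DMSO median and -100 = no signal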
# Starred values were filed as active, the others as inactive; & = joins results of further samples. The list is partial; the hit share may differ from the screen's.
SMILES,rRNA inh HTS,rRNA inh HTS OD600,rRNA inh HTS RFP,AF4-AF9 inh
CN(C)C(=O)c1cccc(-c2ccc3c(c2)[C@H]2[C@H](CCN2C(=O)C2CCC2)[C@H](CO)N3)c1,-2,9,-4.2,2.8
O=C(Cc1ccccn1)N1CC(=O)N2[C@H](CO)[C@H](c3ccc(C#CC4CCCCC4)cc3)[C@H]2C1,3,-7,1.0,5.5
Cc1ccc(S(=O)(=O)Nc2ccc3c(c2)C(=O)N([C@@H](C)CO)C[C@@H](C)[C@@H](CN(C)C(=O)c2ccccc2)OCCCC[C@@H](C)O3)cc1,-2,3,1.8,-1.0
O=C(C[C@H]1CC[C@H]2[C@@H](COC[C@H](O)CN2CC2CCCC2)O1)NCc1ccc(Cl)cc1,1,17,-2.7,-0.9
C[C@H]1CN([C@@H](C)CO)C(=O)c2cc(C#Cc3ccccc3F)cnc2O[C@H]1CN(C)C(=O)C1CCCCC1,-10,-43,37,-3.1
COc1ccc(-c2ccc([C@@H]3[C@H]4CN(C(=O)c5cccnc5)CC(=O)N4[C@H]3CO)cc2)cc1,-2,5,-4.3,0.3
CN1c2ccc(-c3cccc(F)c3)cc2[C@H]2[C@H](CCN2C(=O)c2cccc(F)c2)[C@@H]1CO,-7,-7,7.8,12
N#Cc1cccc(-c2ccc(C3[C@H]4CNC[C@@H]3N4C(=O)Nc3ccc(Cl)cc3)cc2)c1 (some centres not stated),1&-6,-7&-4,-4.0&3.2,-4.2&-0.8
C[C@@H]1CN([C@H](C)CO)C(=O)c2cc(NS(=O)(=O)c3ccc(F)cc3)ccc2O[C@@H](C)CCCCO[C@H]1CN(C)Cc1ccccc1,2,-10,1.5,3.4
Cc1noc(C)c1S(=O)(=O)N(C)C[C@H]1Oc2ccc(NC(=O)Nc3cccc4ccccc34)cc2CC(=O)N([C@H](C)CO)C[C@@H]1C,1,-4,4.7,3.7
CCCC(=O)Nc1ccc2c(c1)OC[C@H](C)N(CCC)C[C@H](C)[C@@H](OC)CN(C)C2=O,-2,-2,-0.4,-0.7
COc1cc(/C=C2\SC(=O)N(c3ccc(Cl)cc3)C2=O)cc([N+](=O)[O-])c1O,-3,7,-1.9,8.9
CN(C)CCCNC(=O)C[C@@H]1CC[C@@H]2[C@@H](COc3ccc(NC(=O)c4cccc(F)c4)cc3C(=O)N2C)O1,1,2,0.2,-0.7
CCCN1[C@@H]2c3ccc(-c4ccccc4F)c(=O)n3C[C@H]1[C@H](CO)[C@H]2C(=O)NCc1ccccn1,-1,5,1.0,-1.6
O=C1CN(S(=O)(=O)Cc2ccccc2)C[C@@H]2[C@H](c3ccc(C#Cc4ccccc4)cc3)[C@H](CO)N12,7,11,-0.2,-1.0
CCC(=O)N[C@@H]1C=C[C@H](CC(=O)NCC2CC2)O[C@@H]1CO,2,7,2.1,-9.1
C[C@@H]1CCCCO[C@@H](CN(C)S(=O)(=O)c2ccccc2)[C@H](C)CN([C@H](C)CO)C(=O)c2cc(NC(=O)C3CCCCC3)ccc2O1,-1,-9,1.3,-0.2
O=C(Cc1ccncc1)N1C[C@@H]2N[C@H](C1)C2c1ccc(-c2ccncc2)cc1 (some centres not stated),7&6,27&16,2.6&-1.4,1.0&1.4
CO[C@@H]1CN(C)C(=O)c2ccc(NC(=O)Cc3ccccc3)cc2OC[C@H](C)N(C)C[C@@H]1C,3,0,-1.5,-0.5
C[C@@H]1CN([C@@H](C)CO)C(=O)c2cc(NS(=O)(=O)c3ccccc3)ccc2O[C@@H](C)CCCCO[C@@H]1CN(C)Cc1ccc(C(F)(F)F)cc1,2,6,0.4,1.2
O=C(c1cnccn1)N1CC(=O)N2[C@H](CO)[C@H](c3ccc(-c4ccc(F)cc4)cc3)[C@H]2C1,2,-3,-2.3,-1.3
N#Cc1cccc(-c2ccc([C@@H]3[C@@H]4CN(S(=O)(=O)c5ccc(-c6ccccc6)cc5)C[C@H]3N4)cc2)c1,2,16,0.4,-1.4
O=C(Cc1cccnc1)N1CC(=O)N2[C@H](CO)[C@@H](c3ccc(C4=CCCC4)cc3)[C@H]2C1,2,0,0.0,2.6
CCCC#Cc1ccc([C@@H]2[C@@H](CO)N3C(=O)CN(C(=O)c4ccccn4)C[C@@H]23)cc1,-1,-1,0.5,0.1
CC(=O)N1CC(=O)N2[C@H](C1)[C@H](c1ccc(-c3cccc(C(=O)N(C)C)c3)cc1)[C@@H]2CO,8,4,-3.4,1.0
O=C(Nc1cccc(F)c1)N1CC(=O)N2[C@@H](CO)[C@@H](c3ccc(C#Cc4cccnc4)cc3)[C@@H]2C1,-6,2,1.7,-0.9
CN1C(=O)c2cc(NC(=O)C3CCC3)ccc2OC[C@@H]2O[C@H](CC(=O)NCC3CCCCC3)CC[C@@H]21,-6,-13,-2.5,-1.0
O=C(C1CC1)N1[C@H](CO)[C@H](c2ccccc2)C12CN(CCC(F)(F)F)C2,1,6,0.5,0.9
O=C(Nc1ccccc1F)N1CC(=O)N2[C@H](CO)[C@H](c3ccc(-c4cccnc4)cc3)[C@@H]2C1,6,0,-1.2,-9.0
C[C@@H](NC(=O)C[C@@H]1C[C@@H]2c3cc(NC(=O)C4CCC4)ccc3O[C@@H]2[C@H](CO)O1)c1ccccc1,-1,-1,0.3,-0.2
COC(=O)c1ccc(CN2CC(=O)N3[C@H](C2)[C@@H](c2ccc(-c4ccccc4F)cc2)[C@@H]3CO)cc1,2,-18,12,5.3
O=C(Nc1cccc(F)c1)N1CC(=O)N2[C@H](CO)[C@@H](c3ccc(C#CC4CC4)cc3)[C@H]2C1,-1,-44,26,3.6
COc1ccc2c3c([nH]c2c1)[C@@H](CO)NCC31CCN(C(=O)Nc2ccc(F)cc2)CC1,-7,-8,3.0,11
CN(C)CC(=O)N[C@@H]1CC[C@@H](CC(=O)O)O[C@@H]1CO,2,4,0.2,-1.9
COCC(=O)N1CC(=O)N2[C@H](CO)[C@@H](c3ccc(C#CC4CCCC4)cc3)[C@@H]2C1,0,-2,0.8,-0.3
COCC(=O)N1CCC2(CC1)CN(Cc1ccccc1Cl)[C@@H](CO)c1[nH]c3cc(OC)ccc3c12,4,6,-0.8,-5.6
O=C(C1CC1)N1CC(=O)N2[C@@H](CO)[C@H](c3ccc(C#CC4CCCC4)cc3)[C@@H]2C1,0,-7,-1.4,1.3
CCC(=O)N1CC(=O)N2[C@H](CO)[C@H](c3ccc(C#Cc4cccc(F)c4)cc3)[C@@H]2C1,5,-13,6.3,6.5
O=C(NCCCN1CCOCC1)[C@H]1[C@H](CO)[C@H]2Cn3c(cccc3=O)[C@@H]1N2C(=O)C1CCCC1,3,8,-3.8,-3.6
CN1c2ccc(Br)cc2[C@H]2[C@H](CCN2C(=O)C2CCCC2)[C@H]1CO,-13,-44,3.1,6.5
O=C(C1CCCCC1)N1[C@@H](CO)[C@@H](c2ccccc2)C12CN(Cc1ccc(F)cc1)C2,-5,-33,26,11
CCCN1[C@@H]2c3ccc(/C=C/c4ccccc4)c(=O)n3C[C@@H]2[C@@H](CO)[C@@H]1C(=O)NCc1ccncn1,-7,-17,2.6,-1.8
C[C@@H]1CN([C@@H](C)CO)C(=O)Cc2cc(N(C)C)ccc2O[C@H]1CN(C)S(C)(=O)=O,-1,7,-0.3,6.0
Cc1ccccc1S(=O)(=O)N1C[C@@H]2N[C@H](C1)C2c1ccc(-c2ccc(C(=O)N(C)C)cc2)cc1 (some centres not stated),-5&-2,-15&5,2.7&0.6,5.2&0.9
O=C(C1CCC1)N1CC2(C1)[C@H](c1ccccc1)[C@@H](CO)N2CC1CCCC1,0,-1,1.5,-1.6
Cc1noc(C)c1NC(=O)Nc1ccc2c(c1)C(=O)N([C@@H](C)CO)C[C@@H](C)[C@H](CN(C)S(=O)(=O)c1ccccc1)OCCCC[C@H](C)O2,-1,-7,0.8,0.8
C[C@H](NC(=O)C[C@H]1C[C@H]2c3cc(NC(=O)C4CCC4)ccc3O[C@H]2[C@@H](CO)O1)c1ccccc1,-1,-10,-1.3,0.9
O=C(C1CCCC1)N1CC(=O)N2[C@@H](CO)[C@@H](c3ccc(C#Cc4cccc(F)c4)cc3)[C@@H]2C1,-5,-1,-4.9,-2.2
O=C(C1CCCC1)N1CC2(C1)[C@@H](c1ccccc1)[C@@H](CO)N2Cc1nccs1,1,-1,0.4,-10
CCCC#Cc1ccc([C@H]2[C@H]3CN(C(=O)Nc4ccccc4)CC(=O)N3[C@H]2CO)cc1,3,-34,6.5,-11
O=C(c1ccccn1)N1CC(=O)N2[C@@H](CO)[C@@H](c3ccc(C#Cc4ccccc4)cc3)[C@@H]2C1,1,-1,0.0,1.4
Cc1ccccc1S(=O)(=O)N1CC(=O)N2[C@H](CO)[C@@H](c3ccc(C#Cc4ccccc4)cc3)[C@@H]2C1,7,7,-3.4,-6.4
CC(C)c1cn(CC[C@H]2CC[C@@H](NC(=O)C3CCOCC3)[C@H](CO)O2)nn1,-1,-1,1.2,-13
O=C1CN(S(=O)(=O)Cc2ccccc2)C[C@@H]2[C@H](c3ccc(C#Cc4ccc(F)cc4)cc3)[C@H](CO)N12,2,9,-3.2,-3.0
C[C@H](CO)N1C[C@H](C)[C@H](CN(C)Cc2ccccc2)OCCCC[C@H](C)Oc2ccc(NS(=O)(=O)c3ccc(F)cc3)cc2C1=O,3,-18,26,37*
COc1ccc(NC(=O)N2CC(=O)N3[C@H](CO)[C@@H](c4ccc(C#CCC5CCCC5)cc4)[C@@H]3C2)cc1,4,8,-0.1,5.4
C[C@@H]1CCCCO[C@@H](CN(C)C(=O)CCCN(C)C)[C@@H](C)CN([C@H](C)CO)C(=O)c2cc(NS(C)(=O)=O)ccc2O1,0,1,-2.2,-0.3
O=C(Nc1cccc(F)c1)N1CC(=O)N2[C@H](C1)[C@@H](c1ccc(C#CC3CC3)cc1)[C@@H]2CO,-34,-66,19,2.7
O=C(c1ccc(F)cc1)N1CC(=O)N2[C@H](CO)[C@@H](c3ccc(/C=C/c4ccccc4)cc3)[C@H]2C1,-28,-65,21,13
Cc1ccsc1C(=O)NNC(=O)c1ccncc1,7,-2,-3.1,-1.8

# A run of entries from the list above, as a working copy:
SMILES,rRNA inh HTS,rRNA inh HTS OD600,rRNA inh HTS RFP,AF4-AF9 inh
CN(C)C(=O)c1cccc(-c2ccc3c(c2)[C@H]2[C@H](CCN2C(=O)C2CCC2)[C@H](CO)N3)c1,-2,9,-4.2,2.8
O=C(Cc1ccccn1)N1CC(=O)N2[C@H](CO)[C@H](c3ccc(C#CC4CCCCC4)cc3)[C@H]2C1,3,-7,1.0,5.5
Cc1ccc(S(=O)(=O)Nc2ccc3c(c2)C(=O)N([C@@H](C)CO)C[C@@H](C)[C@@H](CN(C)C(=O)c2ccccc2)OCCCC[C@@H](C)O3)cc1,-2,3,1.8,-1.0

# Remaining list, next part.
SMILES,rRNA inh HTS,rRNA inh HTS OD600,rRNA inh HTS RFP,AF4-AF9 inh
O=C(C[C@H]1CC[C@H]2NC[C@@H](O)COC[C@@H]2O1)NCCN1CCCC1,0,1,-2.2,2.8
O=C(C[C@@H]1C=C[C@H](NC(=O)CCN2CCCCC2)[C@H](CO)O1)Nc1ccccc1,1,2,-0.2,-1.2
O=C(C[C@H]1C=C[C@H](NC(=O)C2CCOCC2)[C@@H](CO)O1)Nc1nccs1,1,6,0.3,-4.3
COc1ccc2c3c(n(C)c2c1)[C@H](CO)N(C(=O)Cc1ccccc1)CC31CN(C)C1,2,3,-1.2,7.1
C[C@H](CO)N1C[C@H](C)[C@@H](CN(C)C)OCCCC[C@H](C)Oc2ccc(NC(=O)Cc3ccccc3)cc2C1=O,1,1,-4.9,-3.1
O=C(Nc1cc(F)ccc1F)N1[C@@H]2CNC[C@H]1C2c1ccc(-c2ccc(F)cc2)cc1 (some centres not stated),-56&7,-77&4,-11&-0.5,-1.2&-1.2
O=C(C[C@H]1C=C[C@@H](NC(=O)CC2CC2)[C@H](CO)O1)NCc1ccccc1,-6,-7,-3.3,-3.1
CN1C(=O)c2cc(NC(=O)Nc3ccc(Cl)cc3)ccc2OC[C@@H]2O[C@H](CC(=O)O)CC[C@H]21,2,2,-0.8,-0.5
CC=Cc1ccc2n(c1=O)C[C@H]1[C@H](CO)[C@@H](C(=O)N3CCc4ccccc4C3)N(C)[C@@H]21 (mixture of isomers),-1,4,-4.6,-0.8
O=C(Cc1ccccc1)N1C[C@H]2[C@@H](c3ccccc31)[C@@H](CO)N2C(=O)C1CCOCC1,4,5,-2.1,-1.5

# Entries of single compounds, quoted from the list. Order of screens: rRNA inh HTS	rRNA inh HTS OD600	rRNA inh HTS RFP	AF4-AF9 inh
# O=C(C[C@H]1C=C[C@@H](NC(=O)CC2CC2)[C@H](CO)O1)NCc1ccccc1 as listed: -6	-7	-3.3	-3.1
# O=C(Cc1ccccc1)N1C[C@H]2[C@@H](c3ccccc31)[C@@H](CO)N2C(=O)C1CCOCC1 as listed: 4	5	-2.1	-1.5
# CN1C(=O)c2cc(NC(=O)Nc3ccc(Cl)cc3)ccc2OC[C@@H]2O[C@H](CC(=O)O)CC[C@H]21 as listed: 2	2	-0.8	-0.5
# COc1ccc2c3c(n(C)c2c1)[C@H](CO)N(C(=O)Cc1ccccc1)CC31CN(C)C1 as listed: 2	3	-1.2	7.1

# Bioassay records deposited in PubChem by Broad Institute.
